# Compound activity (PubChem)
# LASV entry inh – Lassa virus entry inhibition; Lassa virus pseudotype entry inhibition, cell reporter; control for the full effect not named in the record; 300,000 compounds, 1.2% hits; AID 540256; Potency, µM (top dose mostly 37.9 µM), for inactives: at the top dose activity change, negative = inhibition, actives largely listed as inhibitors; active means well fitted inhibition curve with a large enough effect; inconclusive means small, poorly fitted or top-dose-only effect, or effect the other way; inactive means flat fitted curve, though single readings scatter; tested in HEK293 cells; further: on the % scale 0 is the no-effect control and ±100 the full control effect; nearly all actives have a fitted effect of over 50% in size; luciferase read-out
# Cruzain Triton – blocks cruzain activity in presence of Triton detergent; AID 1478; 200,000 compounds, 0.43% hits; purified cruzain, Z-FR-AMC fluorescence, 0.01% Triton; Potency, µM, inactives show max response, negative = inhibition, hits mostly inhibitors; active means well fitted curve in the direction sought with a large enough effect; inconclusive means small, poorly fitted or top-dose-only effect, or another doubt; inactive means no such curve, though single readings can be large; an effect the other way counts as inactive or inconclusive;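 further: plate controls were neutral wells for no effect and buffer without enzyme for full effect; nearly all actives have a fitted effect of over 40% in size; top concentration of the series not given in the record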
# Target sequence (P25779 123-467 limits assumed): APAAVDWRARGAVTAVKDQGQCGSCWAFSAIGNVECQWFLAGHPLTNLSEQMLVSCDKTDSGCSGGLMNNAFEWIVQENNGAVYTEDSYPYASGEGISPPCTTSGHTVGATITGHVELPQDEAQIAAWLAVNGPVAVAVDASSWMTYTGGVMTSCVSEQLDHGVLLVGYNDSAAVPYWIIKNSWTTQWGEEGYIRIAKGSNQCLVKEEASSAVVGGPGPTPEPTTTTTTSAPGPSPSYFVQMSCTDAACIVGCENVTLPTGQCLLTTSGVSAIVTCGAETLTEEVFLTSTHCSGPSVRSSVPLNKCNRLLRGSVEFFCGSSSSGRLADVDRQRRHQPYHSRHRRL
#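 Z-FR-AMC hydrolysis (2 uM substrate) by cruzain (1.5 nM) monitored kinetically at ex 360/em 450 nm after 15 min room-temperature compound exposure; 0.01% Triton X-100, pH 5.5, 5 mM DTT.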
# Cruzain noTriton – blocks cruzain activity in detergent-free assay; P25779; 200,000 compounds, 2.3% hits; Potency, µM, for inactives: max response, negative = inhibition, most hits filed as inhibitors; purified cruzain, Z-FR-AMC fluorescence, no detergent; active means well fitted curve in the direction sought with a large enough effect; inconclusive means small, poorly fitted or top-dose-only effect, or another doubt; inactive means no such curve, though single readings can be large; an effect the other way counts as inactive or inconclusive;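 further: plate controls were enzyme without inhibitor for no effect and buffer without enzyme for full effect; nearly all actives have a fitted effect of over 40% in size; top concentration of the series not given in the record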
#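 Purified cruzain at 1.5 nM, pre-incubated 15 min with compound at room temperature in 100 mM sodium acetate pH 5.5, 5 mM DTT, 0.00005% Triton X-100. Reaction started with 2 uM Z-FR-AMC; AMC fluorescence increase over 60 s gives rate.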
# NS1 function inh – influenza NS1 inhibition. S. cerevisiae slowed by influenza A NS1, growth recovery by OD600. Potency, µM (top dose mostly 46.1 µM), for the others: top-dose activity, positive = more growth. 270,000 compounds, 0.4% hits. AID 2326; further: actives are rising curves; nearly all actives have a fitted effect of over 50% in size
#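 A cell-based growth assay was used: compounds that relieve NS1-induced slow growth of budding yeast raise OD600. Assay medium was yeast nitrogen base with ammonium sulphate and -URA supplement, pH 6.0, with 2% galactose.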
# RE007 growth inh – less growth of the S. pombe RE007 Vpr strain | S. pombe RE007 Vpr strain, BacTiter-Glo ATP luminescence, 24 h; control for the full effect not named in the record | Potency, µM (highest dose often 92.2 µM), for inactives: top-dose activity change, negative = less growth | 360,000 compounds, 0.21% hits; active = well fitted falling curve with a large enough effect; inconclusive = small, poorly fitted or top-dose-only effect; inactive = no such curve, though single readings can be large or run the other way;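 further: on the % scale 0 is the no-effect control and ±100 the full control effect; nearly all actives have a fitted effect of over 50% in size; the assay follows cell death caused by Vpr and the record does not say whether a fall means rescue or toxicity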
#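 Fission yeast strain RE007, carrying one chromosomally integrated HIV-1 vpr copy, was seeded at OD 0.01 in PMG+AL medium with 23 nL pinned compound. After 24 h at 30 °C and 99% humidity, viability was read by BacTiter-Glo luminescence.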
# SARS PLpro yeast – inhibitors of SARS-CoV papain-like protease in yeast | 330,000 compounds, 0.19% hits | S. cerevisiae expressing SARS-CoV PLpro, growth rescue; control for the full effect not named in the record | Potency, µM (titrated, usually from 32.9 µM), without a hit: at the top dose activity, positive = growth rescue; further: 0% is about no effect; nearly all actives have a fitted effect of over 55% in size; growth read by luminescence after 48 h
# 2A StopGo – FMDV 2A StopGo reporter, luciferase signal; Potency, µM (top dose mostly 57.9 µM), for the others: top-dose signal change, negative = less light; 410,000 compounds, 1.2% hits; human cells with a luciferase reporter of 2A StopGo recoding; control for the full effect not named in the record; active = well fitted falling curve with a large enough effect; inconclusive = small, poorly fitted or top-dose-only effect; inactive = no such curve, though single readings can be large or run the other way; tested in HEK293T cells; further: on the % scale 0 is the no-effect control and ±100 the full control effect; nearly all actives have a fitted effect of over 45% in size; luciferase light after 4 h
# Marburg entry inh – inhibitors of Marburg virus binding or cell entry. Marburg virus pseudotyped entry inhibition, cell reporter; control for the full effect not named in the record; about a third of the inactives were read at about 46 µM. Potency, µM (titrated, usually from 37.8 µM), for the others: at the highest dose activity change, negative = inhibition, hits mostly inhibitors. 300,000 compounds, 1.8% hits. AID 540276; active = well fitted inhibition curve with a large enough effect; inconclusive = small, poorly fitted or top-dose-only effect, or effect the other way; inactive = flat fitted curve, though single readings scatter; tested in HEK293 cells; about a fifth of its hits are not listed in these tables; further: on the % scale 0 is the no-effect control and ±100 the full control effect; luciferase read-out
# Numbers without * were called inactive; ? = inconclusive; · = no result given; & = joins results of further samples; [ ] = remark or other dose. Unless noted, the call rests on the fitted dose curve; in most records, active means well fitted rising curve with a large enough effect; inconclusive means small, poorly fitted or top-dose-only effect; inactive means no such curve, though single readings can be large or run the other way. Potency means the concentration at half of the fitted maximal effect.
SMILES,LASV entry inh,Cruzain Triton,Cruzain noTriton,NS1 function inh,RE007 growth inh,SARS PLpro yeast,2A StopGo,Marburg entry inh
COc1ccc(-c2nnn(CC(=O)NCCc3ccc(OC)c(OC)c3)n2)cc1,8%[46.1 µM],·,·,-1%,7%,-1%,-11%,-9%[46.1 µM]
Cc1cc(OC(C)C(=O)Nc2c(C(=O)c3ccc(F)cc3)oc3ccccc23)ccc1Cl (stereo not drawn),0%[46.1 µM],0.2%,-8%,·,·,·,0%,2%[46.1 µM]
COc1ccc(N2C(=O)CC(Sc3nccc(C)n3)C2=O)cc1 (stereo not drawn),?,0.3%,-11%,-6%,-6%,4%,-12%,8%
Cn1cc([C@@H]2C[C@H]3CN(Cc4cccc(Cl)c4)C(=O)[C@]34CCCN24)c(-c2ccccc2)n1,?,·,·,4%,-4%,-2%,-12%,?
CCN(CC)C(=O)CN1C(=O)/C(=C/c2ccccc2)SC1=S,·,·,·,4%,-4%,-5%,-13%,·
COc1cc(CN(C(C)=O)c2ccccc2C(=O)O)ccc1[N+](=O)[O-],4%,·,·,·,-8%,·,-6%,6%
C=CCNC(=S)NNc1nc(Nc2ccccc2)nc(N2CCCCC2)n1,2%,·,·,4%,-11%,-1%,-8%,-20%[46.1 µM]
COc1ccc2c(c1)c(=O)c(C(=O)c1ccccc1)cn2Cc1ccccc1,-46%,0.2%,1%,-42%,-25%,-7%,-18%,-13%
O=C(N/C(=C/c1cccc([N+](=O)[O-])c1)C(=O)N1CCOCC1)c1ccc(Br)cc1,-20%,·,·,17%,4%,2%,37%[activator],25%
CC(=NNC(=O)c1ccncc1)c1ccc(O)cc1O,?,·,·,·,8%,·,10%,?
COc1cccc(CNc2nc3nc(C)c(Cl)c(C)n3n2)c1,18%,-2.1%,-11%,-35%,-18%,-6%,38%[activator],?
Cc1ccc(NS(=O)(=O)c2ccccc2)c([N+](=O)[O-])c1,-2%[46.1 µM],·,·,·,7%,·,7%,-5%[46.1 µM]
CC(C)CNC(=O)[C@H]1N2C(=O)c3ccccc3C2SC1(C)C (stereo partly drawn),1%,·,·,5%,2%,2%,-1%,12%
Nc1c(S(=O)(=O)c2ccccc2)c2nc3ccccc3nc2n1/N=C/c1ccco1,-17%,2.5%,?,13%,-22%,-2%,0%,?
S=C(NCCCN1CCOCC1)N1CCN(c2cccc(Cl)c2)CC1,?,·,·,3%,7%,2%,?,?
CSc1nn(Cc2ccc(F)cc2)c(N)c1S(=O)(=O)c1ccc(Cl)cc1,?,-6.3%,6%,·,·,·,-14%,·
O=C(COC(=O)c1ccc(Cl)c(S(=O)(=O)N2CCCCC2)c1)NCCc1ccccc1,-4%,·,·,·,6%,6%,-2%,0%
O=C(NCC1COCCO1)C1CCN(S(=O)(=O)c2ccccc2)CC1 (stereo not drawn),0%,-0.4%,1%,1%,-12%,6%,0%,20%
CCOC(=O)c1ccc(NC(=O)NS(=O)(=O)c2ccc(C)cc2)cc1,-15%,1.1%,5%,5%,-2%,-4%,-3%,-5%
COC(=O)c1ccc(CSc2nc3ccccc3c(=O)n2C)o1,11%,·,·,6%,3%,0%,?,0%[46.1 µM]
CCC1Oc2ccccc2N(CC(=O)NCCCN2CCN(c3ccc(OC)cc3)CC2)C1=O (stereo not drawn),·,·,·,-1%,-11%,9%,11%,·
Cc1nc2cc(NC(=O)NCc3ccc4c(c3)OCO4)ccc2o1,5%,-0.5%,-10%,4%,2%,0%,·,8%
O=C(CCNC(=O)c1ccccc1Cl)Nc1ccncc1,·,·,·,11%,-6%,13%,-3%,·
CCCCc1nn2c(=O)cc(COC(=O)Cc3ccccc3)nc2s1,?,-2.6%,-13%,·,·,·,-12%,·
Cc1ccc(C)c(N=Cc2cc3c(cc2[N+](=O)[O-])OCO3)c1,-1%,·,·,·,-4%,-1%,-9%,8%[46.1 µM]
# The list goes on.
SMILES,LASV entry inh,Cruzain Triton,Cruzain noTriton,NS1 function inh,RE007 growth inh,SARS PLpro yeast,2A StopGo,Marburg entry inh
CCOCCCNC(=O)CN(Cc1ccc(Cl)cc1)S(C)(=O)=O,14%,1.4%,-2%,-4%,6%,0%,-23%,8%
Cc1cc2c(cc(C(=O)NCc3cccnc3)n2Cc2ccc(Cl)cc2)o1,31%[14.3 µM],-17%,1%,8%,-4%,-1%,-4%,-1%&19%
CCOC(=O)C(/C=N/c1cc(C)nn1-c1ccccc1)=C(\C)O,?,-0.7%,6%,-2%,14%,1%,-5%,22%
CCOC(=O)Cn1cc(C(=O)C2CC2)c2ccccc21,?,-1.7%,1%,0%,23%,7%,4%,14%
CNc1nc2c(c(=O)[nH]c(=O)n2C)n1CCOC,·,1.8%,1%,-36%,·,-1%,·,-8%
CSc1ccc(S(=O)(=O)N2CC(=O)Nc3ccccc32)cc1,·,·,·,8%,23%,-1%,-20%,·
O=C(/C=C/c1ccccc1)Nc1nc(-c2ccncc2)cs1,?,·,·,·,16%,-10%,13µM*,?
CC(C)c1nc2sc3c(SCC(=O)NCc4ccco4)ncnc3c2c2c1CCC2,?,-18%,?,6%,0%,-6%,?,?
O=C(O)c1c(Cl)nc2ccccn12,7%,·,·,·,6%,7%,1%,15%
Cc1ccc(Cc2c(C)c(C#N)c3[nH]c4ccccc4n3c2=O)cc1,·,·,·,-57%,4%,-7%,?,·
Nc1c(C(=O)NCc2cccnc2)sc(=S)n1-c1ccccc1,?,-5.9%,-9%,-112%,-17%,11%,-14%,3%
CCCOC(=O)c1ccc(NC(=O)c2ccc(Br)o2)cc1,-8%,-6.2%,14%,-44%,?,-61%,?,?
CCOC(=O)CC1C(=O)NCCN1C(=O)c1ccc(C)cc1 (stereo not drawn),·,·,·,8%,15%,2%,-4%,·
O=C(NCc1ccc(F)cc1)c1cc(C(=O)C2CC2)c[nH]1,?,·,·,1%,-5%,-5%,-5%,8%[46.1 µM]
Cn1c(=O)c2c(nc(/C=C/c3cccc(Cl)c3)n2C)n(C)c1=O,-2%,8.6%,?,-6%,-8%[18.4 µM],·,-22%&-14%,?
O=C(COc1nc2ccccc2nc1N1CCOCC1)NC1CCCCC1,15%,1.9%,0%,-1%,-5%,-2%,-24%,35%
CC(C)[C@H](NC(=O)c1ccc(Cl)c([N+](=O)[O-])c1)C(=O)NCc1ccc(F)cc1,9%,-3.6%,6%,0%,-8%,3%,-6%,-5%
O=c1[nH]cnc2c1ncn2C1OC(CO)C(O)C1O (stereo not drawn),·,1.8%&5.2%&7.9%,-5%&-1%&-5%,·,10%,·,-14%&6%,·
O=C(CSc1ccc(Br)cc1)NCC(c1ccco1)N1CCCCC1 (stereo not drawn),17%,·,·,·,-7%,0%,-7%,-7%
COC(=O)Nc1ccc(S(=O)(=O)Nc2cc(OC)nc(OC)n2)cc1,-6%,·,·,-1%,-1%,?,14%,15%
C/C(=N/NC(=O)CNC(=O)c1cccnc1)c1ccc(Cl)cc1,·,·,·,2%,3%,0%,-4%,·
COc1ccc2[nH]cc(CCNC(=O)COc3ccc4ccc(=O)oc4c3)c2c1,·,·,·,24%,-5%,-7%,-26%,·
Cn1cccc1C(=O)NCCc1ccccc1,?,·,·,-7%,-6%,-4%,?,?
O=C(c1cccc(F)c1)N1CCCN(C(=O)c2cccc(F)c2)CC1,19%,0.7%,-10%,-6%,-14%,9%,3%,7%
CC(NC(=O)CN1CCN(c2ncccn2)CC1)c1ccc(F)cc1 (stereo not drawn),3%,3.8%,-3%,-1%,-2%,0%,12%,1%
# Continued.
SMILES,LASV entry inh,Cruzain Triton,Cruzain noTriton,NS1 function inh,RE007 growth inh,SARS PLpro yeast,2A StopGo,Marburg entry inh
O=C(NS(=O)(=O)Nc1ccc(Br)cn1)c1c[nH]c2ccccc12,·,·,·,10%,4%,-16%,-10%,·
CCCNC(=S)Nc1ccc(F)cc1F,4%,·,·,4%,-7%,0%,-3%,?
CCCn1c(SCC(=O)c2ccc(CC)cc2)n[nH]c1=O,7%,1.2%,-4%,3%,-30%,-1%,-23%,4%
COc1ccc(Cl)cc1NC(=O)Nc1cc(C)on1,·,·,·,-53%,6%,-4%,-1%,·
Cc1cccc(CNC(=O)CS(=O)(=O)c2cccc3nsnc23)c1,0%[46.1 µM],-3.6%,-1%,·,·,·,34%[activator],·
CCOC(=O)c1c(C)[nH]c(C(=O)OCC(=O)c2ccc(OC)cc2OC)c1C,4%,·,·,·,-25%,-3%,-14%,11%[46.1 µM]
Cc1cc2c(o1)CC(C)(C)CC2=O,-5%[46.1 µM],·,·,·,14%,2%,12%,9%[46.1 µM]
CC(C)[C@H](NC(=O)c1ccccc1)C(=O)OCC(=O)c1ccc(S(=O)(=O)N2CCCCC2)cc1,15%,·,·,·,34%,-6%,-1%,-27%
COc1cccc(CN2C(=O)CN(C3CCCCC3)C(=O)C2c2ccc(OC(C)C)c(OC)c2)c1 (stereo not drawn),?,-1.1%,?,·,·,·,0%,·
Cc1cccc(NC(=O)CSc2nc3c(oc4ccccc43)c(=O)n2-c2ccc(F)cc2)c1,·,-5.0%,?,·,·,·,-26%,-24%[46.1 µM]
Cc1cc(-c2cc(C(=O)NCc3ccccc3)on2)nc(S(C)(=O)=O)n1,·,·,·,10%,0%,0%,?,·
Oc1cc(Cc2ccccc2)cnc1CN1CCOCC1,-2%,1.8%,7%,-6%,-14%,-3%,8%,1%
O=C(c1cnc2n(c1=O)CCS2)N1CCc2ccccc21,·,-6.6%,-6%,7%,8%,-24%,-13%,·
O=C(Nc1ccc(OC(F)(F)F)cc1)C1CCCN(S(=O)(=O)c2cccnc2)C1 (stereo not drawn),2%,-3.0%,?,-8%,33%,-2%,?,-28%
CC(OC(=O)c1cc2sccc2n1C)C(=O)NC(C)(C)C (stereo not drawn),·,·,·,-3%,8%,0%,-22%,·
